GIV Gai3 FP: inhibitors of GIV peptide binding to Galpha-i3, primary screen, biochemical, fluorescence polarization, FITC-GIV GBA peptide, rat Galphai3; Guanine nucleotide-binding protein G(i) subunit alpha-3 (Rattus norvegicus), P08753; percent of control (FP), % (no concentration beside the values); AID 1224905, 2016; actives 0.42% (n = 210,000); 90 min; hits give low values; scaled: aluminum fluoride 0%, vehicle 100%;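 active means replicate mean at 85% of control or lower, very high polarization wells dropped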;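 further: wells of about 15 µL received 100 nL stock; the first replicate is given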
Target sequence (P08753 whole entry, looked up): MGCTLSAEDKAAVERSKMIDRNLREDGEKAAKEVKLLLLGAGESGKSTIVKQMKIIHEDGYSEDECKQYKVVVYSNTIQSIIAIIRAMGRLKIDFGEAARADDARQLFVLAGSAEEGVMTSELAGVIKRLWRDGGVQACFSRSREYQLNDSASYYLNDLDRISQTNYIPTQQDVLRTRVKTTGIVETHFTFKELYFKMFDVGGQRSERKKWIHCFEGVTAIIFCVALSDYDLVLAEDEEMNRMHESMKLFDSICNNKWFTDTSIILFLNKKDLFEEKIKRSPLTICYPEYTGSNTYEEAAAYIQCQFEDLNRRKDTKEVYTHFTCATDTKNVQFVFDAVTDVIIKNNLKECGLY
Sa growth inh: S. aureus growth inhibition at 42 and 30 °C, primary screen, LtaS inhibitor project, RN4220, two temperatures; AID 720641, 2013; OD600, 20 h, 42 °C; hits give low values; relative growth, % (test concentration not listed); actives 0.53% (n = 170,000);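 active means growth at 42 °C up to 50% and 20 or more points under that at 30 °C, or under 10% at both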;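 further: 300 nL library stock went into each well; scaled to the means of positive and negative controls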
HCMV UL50-53 inh: inhibitors of HCMV UL50-UL53 interaction, biochemical, HTRF | actives 0.15% (n = 190,000) | inhibition, % (no concentration beside the values) | normalized percent inhibition;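 active means both replicates at 50% or more, plus weaker picks with an unusually low signal ratio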;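 further: stock transfer was 100 nL into about 20 µL; 0% = negative control wells and 100% = wells with untagged competitor protein; inactives centre near -12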
Sa growth inh second temp: also measured in Sa growth inh; calls as there; relative growth, %; measured here: growth at 30 °C;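 optical density after 20 h as mean of two plates; 100% = untreated growth and lower means inhibition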
Starred values were filed as active, the others as inactive; nt = no result given; & = joins results of further samples.

SMILES	GIV Gai3 FP	Sa growth inh	Sa growth inh second temp	HCMV UL50-53 inh
O=C(NCC(c1cccnc1)N1CCc2ccccc21)c1ccc(F)cc1 (stereo not given)	106	75	85	2
CCn1c(=NC(=O)c2ccc(S(=O)(=O)N(C)C)cc2)sc2cc(C(=O)OC)ccc21	105	92	82	-23
CC(C)COc1ccc(C(=O)Nc2ccc3c(c2)NC(=O)CO3)cc1	104	nt	nt	-4
Cc1oc2ncn(CCC(=O)NCCC(C)C)c(=O)c2c1C	109	nt	nt	-2
COc1ccc(NC(=O)CN2CCC(N3CCCCC3)CC2)c(OC)c1	97	78	99	-10
CCc1nnc2c(NCC3CCCO3)nc3ccccc3n12 (stereo not given)	104&102	96	89	-10&-3
COc1ccc(CCN2C(=O)c3[nH]nc(-c4ccccc4O)c3C2c2cccc(OC)c2)cc1 (stereo not given)	104	109	63	7
Cc1[nH]n(-c2ccccc2)c(=O)c1S(=O)(=O)c1ccccc1	nt	89	94	8
O=C(CSc1nnc(Cc2ccccc2)o1)c1ccc(SC(F)F)cc1	101	nt	nt	1
COc1ccc(-c2[nH]c3ccccc3c2SCCNC(=O)c2ccc3c(c2)OCO3)cc1	110	117	90	nt
Cn1nnc2c(NCc3ccccc3Cl)ncnc21	98	111	97	nt
COc1ccc(Cn2c(=O)[nH]c3cc(C(=O)NC4CCCCC4)ccc3c2=O)cc1	100	102	87	nt
CCOc1ccc2cc(C3CC(c4ccccc4)=NN3C(=O)CCC(=O)O)c(Cl)nc2c1 (stereo not given)	106	nt	nt	-18
COc1ccc(C2C(C(=O)NCC3CCCO3)CCC(=O)N2c2ccc3c(c2)OCO3)cc1 (stereo not given)	102	92	88	-5
OCCNc1nc2ccccc2n1Cc1ccccc1	nt	99	91	-18
O=C(CSC1CCCC1)c1ccccc1F	nt	108	94	-27
CCOC(=O)c1cc(-c2ccccc2)n(-c2ccc(C(=O)O)cc2)c1C	111	49	21	nt
O=C(Nc1cc(F)ccc1F)Nc1cc(NC(=O)c2ccc(F)cc2)ccc1N1CCCC1	97	nt	nt	-33
COC(=O)c1cc(=O)n(Cc2cccs2)c(=Nc2ccccc2)s1	99	92	81	-27
COc1cc(/C=C/C(=O)NC23CC4CC(CC(C4)C2)C3)cc(OC)c1OC	nt	89	103	22
Cc1cc(C)c2c(-n3cccc3)c(C(=O)N(C)Cc3ccccc3)sc2n1	101&98	62	35	-8
Cc1c(C(=O)/C=C/N(C)C)nnn1-c1ccc(Cl)cc1C#N	106	96	94	-19
COc1ccc(OC)c([C@@H]2Nc3ccc(C(=O)O)cc3[C@@H]3C=CC[C@@H]32)c1	107	94	83	nt
COc1cccc(C(=O)NCc2ccc3c(c2)cc(C)n3C)c1	109	91	89	8
C=CCc1cccc(Cl)c1OCCNCc1ccco1	107	94	101	-24
CCCOC(=O)C1C2C=CC3(CN(CC4CCCO4)C(=O)C13)O2 (stereo not given)	101	90	90	-12
O=C1NC(=O)C2C1C(c1ccco1)NN2Cc1ccccc1 (stereo not given)	109	59	69	-8
Cc1ccc(NC(=O)Cn2c(=O)n3nc(C)nc3c3ccccc32)cc1	nt	96	92	-26
N#Cc1ccc(COC(=O)c2ccccc2)cc1	101	102	96	-12
Cc1c(NC(=O)Nc2ccccn2)sc2nc3n(c(=O)c12)CCC(C)CC3 (stereo not given)	95	90	84	-15
COCC(C)n1c(-c2cccs2)csc1=Nc1cccnc1 (stereo not given)	nt	119	70	-17
NC(=O)NS(=O)(=O)c1ccc(N)cc1	nt	68	57	-6&-70
CCOC(=O)c1c(NC(=O)c2ccc(OCC)c(Br)c2)sc2c1CCCC2	99	95	90	-14
CNC(=O)Cc1ccc(-n2c(=O)c3ccccc3n(CC(=O)NCCc3ccc(Cl)cc3)c2=O)cc1	102	nt	nt	-7
O=C(OCCN1C(=O)c2cccc3c(N4CCCCC4)ccc(c23)C1=O)c1cc([N+](=O)[O-])cc([N+](=O)[O-])c1	107	nt	nt	-13
CCN(CC)c1ncccc1C(=O)NCc1cccs1	100	101	86	-36
Nc1[nH]c(=O)[nH]c(=O)c1N=Nc1ccc(S(=O)(=O)N2CCOCC2)cc1	nt	95	96	-20
CCOc1ccc2c(c1)-c1c(ssc1=S)C(C)(C)N2C(=O)CSc1nnc(N)s1	106	nt	nt	-79
CC1CCN(C(=O)COC(=O)c2cccs2)CC1	nt	90	92	-19
Cc1ccccc1-c1noc(-c2ccc(N3CCOCC3)c([N+](=O)[O-])c2)n1	107	104	85	-2
CC(C)NC(=O)c1cc2c(=O)oc3ccccc3c2n1C	109	nt	nt	9
Cc1cc2nc(N3CCCC3C(N)=O)c3ccccc3n2n1 (stereo not given)	nt	96	104	-7
CCC(C)Nc1oc(-c2ccc(S(=O)(=O)N3CCCC3)cc2)nc1C#N (stereo not given)	106	nt	nt	-29
COc1cc([N+](=O)[O-])ccc1NC(=O)Cn1c2ccccc2c(=O)c2cc(C)ccc21	106	nt	nt	-31
Cn1c(SCc2nnc(-c3ccc(Cl)cc3)o2)nc2sccc2c1=O	nt	71	92	-17

Three compounds out of the list above, sorted by their value in GIV Gai3 FP, high to low.
mol | GIV Gai3 FP
O=C(OCCN1C(=O)c2cccc3c(N4CCCCC4)ccc(c23)C1=O)c1cc([N+](=O)[O-])cc([N+](=O)[O-])c1 | 107
CCOc1ccc2c(c1)-c1c(ssc1=S)C(C)(C)N2C(=O)CSc1nnc(N)s1 | 106
CNC(=O)Cc1ccc(-n2c(=O)c3ccccc3n(CC(=O)NCCc3ccc(Cl)cc3)c2=O)cc1 | 102

(list continues)
SMILES	GIV Gai3 FP	Sa growth inh	Sa growth inh second temp	HCMV UL50-53 inh
O=C(OCCN1C(=O)c2ccccc2C1=O)c1ccc(-n2cnnn2)cc1	nt	98	97	-27
O=C(Nc1cc2ccccc2oc1=O)c1ccccc1	98	90	90	-25
COc1ccc2[nH]cc(CCNC(=O)Nc3ccc(F)cc3)c2c1	101	113	74	-15
Cn1c(=O)c(C(=O)NCCCc2ccccc2)cc2cccnc21	102	119	106	-31
O=C(Sc1n[nH]c(C(F)(F)F)n1)c1ccc(C#Cc2ccccc2)o1	101	61	70	-27
O=C(O)c1cc(N2CCN(c3ccc(Cl)cc3)CC2)nc2ccc(NC(=O)C3CC3)cc12	103	nt	nt	-30
Cc1cccc(Cn2ccn(Cc3ccccc3)c(=O)c2=O)c1	97	79	87	-25
COC(=O)c1ccccc1NC(=O)c1c(C)nn(-c2ccccc2)c1-n1cccc1	105	100	93	nt
COc1ccc(Br)cc1C(=O)NCc1cccnc1	98	87	63	-1
c1ccc2c(-c3csc(-c4ccc(-c5ccno5)s4)n3)csc2c1	109	96	72	-28
CN1C(C)(C)CC(NC(=O)c2ccco2)CC1(C)C	97	92	92	11
CCC(CC)C(=O)Nc1cccc(C(=O)NCc2ccco2)c1	114	101	95	7
COc1ccc(-n2ncc(NC(=O)NCc3ccccn3)c2C)cc1	107	117	101	-4
c1ccc(Cn2nnnc2C(c2ccccc2)N2CCN(Cc3ccncc3)CC2)cc1 (stereo not given)	105	128	88	-10
CC(C)(C)OC(=O)N1CCC(c2c(C(=O)N3CCC(c4ccccc4)C3)cnn2-c2ccc(Cl)cc2)CC1 (stereo not given)	104	101	84	nt

One compound at a time (already shown). Order of values: GIV Gai3 FP	Sa growth inh	Sa growth inh second temp	HCMV UL50-53 inh
O=C(CSc1nnc(Cc2ccccc2)o1)c1ccc(SC(F)F)cc1 is listed with 101	nt	nt	1
Cn1c(SCc2nnc(-c3ccc(Cl)cc3)o2)nc2sccc2c1=O is listed with nt	71	92	-17
Cc1[nH]n(-c2ccccc2)c(=O)c1S(=O)(=O)c1ccccc1 is listed with nt	89	94	8

(continued)
SMILES	GIV Gai3 FP	Sa growth inh	Sa growth inh second temp	HCMV UL50-53 inh
COc1ccc(C(=O)Nc2ccc(N(C)Cc3ccccc3)c(C(=O)O)c2)cc1	98	118	83	nt
O=C(/C=C/c1ccccc1)NCCO	100	91	118	6
Cc1ccc(CCNC(=O)CCCc2nnc3n(C)c(=O)c4sccc4n23)cc1	99	87	93	5
Cc1csc(NC(=O)c2nc3ccccc3nc2Cl)n1	102	nt	nt	-106
CCOc1ccccc1NC(=O)c1c(NCc2sccc2C)sc2c1CCC(C)C2 (stereo not given)	109	81	105	nt
CCn1c(-c2ccc3c(c2)OCCO3)cnc1SCc1nc(-c2ccccc2)no1	nt	113	100	-8
CCCCn1c(SCC)nc2cc(S(N)(=O)=O)ccc21	nt	104	87	-8
O=C(c1c(-c2ccc(Cl)cc2)nc2n1CCS2(=O)=O)N1CCCCC1	105	nt	nt	-4
O=C(C1COc2ccccc2O1)N(CC1CCCO1)c1nc2ccccc2s1 (stereo not given)	nt	100	99	-29
Brc1ccc2c(c1)OCCOCCOCCO2	nt	111	92	-10
CN(C(=O)c1snc2ccc(Cl)cc12)c1ccccc1	nt	102	100	3
O=C(N=C1N=C2C=CC=CN2Cc2ccccc21)c1ccncc1	nt	78	82	-41
c1ccc(Nc2nc3c(ccc4ccccc43)s2)cc1	nt	41	54	-35
CC1CCN(C(=O)CCCOc2ccc(Cl)cc2)CC1	101	114	94	-4
CCOC(=O)c1c(C)[nH]c(CN(Cc2ccc(C)cc2)C(=O)NC)c1C	104	nt	nt	4

Single values from the entries so far:
Reading of CCOC(=O)c1c(C)[nH]c(CN(Cc2ccc(C)cc2)C(=O)NC)c1C under HCMV UL50-53 inh: 4
Reading of O=C(N=C1N=C2C=CC=CN2Cc2ccccc21)c1ccncc1 under Sa growth inh second temp: 82
Reading of CC1CCN(C(=O)CCCOc2ccc(Cl)cc2)CC1 under GIV Gai3 FP: 101

(listing goes on)
SMILES	GIV Gai3 FP	Sa growth inh	Sa growth inh second temp	HCMV UL50-53 inh
CCCCC(=O)Nc1cccc(-c2nc3ncccc3o2)c1C	106	88	86	-36
CN(C)CCn1c(C(=O)Nc2ccccc2)cc2ccccc21	101	89	81	-13
CC(NS(=O)(=O)/C=C/c1ccccc1)C(=O)O (stereo not given)	nt	100	101	-4
CCN(CC)C(=O)CN1C(=O)C2CCCCN2c2ccc(S(=O)(=O)N(C)C)cc21 (stereo not given)	99	nt	nt	7
COc1ccc(CNc2ccc(C)c(C)c2)cc1OC	nt	124	92	-6
O=C(NCc1ccc(F)cc1)C1CCC(=O)N1C1CCCC1 (stereo not given)	107	110	95	6
CCNc1nc(-c2ccc(NC(=O)CC)cc2)cs1	nt	102	94	-8
COc1ccc(-c2cc3nc(C)c(CCC(=O)NC(C)CCc4ccco4)c(C)n3n2)c(OC)c1 (stereo not given)	100	84	92	-11
Cc1cc(C(=O)Nc2sc3c(c2C(N)=O)CCCC3)on1	103	93	89	nt
O=C(CSc1nccn1Cc1ccco1)Nc1ccc(F)cc1	97	125	81	nt
Cc1cc(NC(=O)/C=C/c2ccco2)n(-c2nc3ccccc3n2Cc2cccc(Oc3ccccc3)c2)n1	nt	83	100	-7
COc1cc(C)c(NS(=O)(=O)c2cccs2)cc1OC	nt	95	93	-30
COc1ccccc1N1CCN(c2ncnc3onc(C)c23)CC1	100	91	87	nt
COc1ccc(-c2nc(C#N)c(NC3CCCCC3)o2)cc1	101	98	96	-3
Cc1cc(C2CCCCC2)n(O)c(=O)c1	nt	90	83	-20&-1&6&-18
CCCOc1ccc(C(=O)Nc2cc(-c3nc4cc(C)cc(C)c4o3)ccc2C)cc1	104	92	87	-33
Cc1ccc(C(=O)Nc2ccccn2)cc1	nt	96	93	-14
COc1ccccc1CNC(=O)c1cc2cc3ccc(Cl)cc3nc2o1	109	104	95	-10
O=C(Cn1ncc2c3ccccc3n(Cc3ccc(Cl)cc3)c2c1=O)NCCCc1ccccc1	140	106	93	-9
CCOC=C1C(=O)c2ccccc2C1=O	114	78	72	nt
O=C(c1ccco1)N1CCNCC1	99	104	87	-21
O=C(Nc1ccc2nsnc2c1)c1ccccc1	103	106	73	-74
COc1cc(OC)cc(C(=O)n2nc(C)cc2C)c1	101	114	98	nt
CCOC(=O)c1cc(-c2ccccc2)n(CC(=O)O)c1C	102	99	92	nt

A different layout for 7 compounds above.
Under each structure – GIV Gai3 FP	Sa growth inh	Sa growth inh second temp	HCMV UL50-53 inh
- Cc1cc2nc(N3CCCC3C(N)=O)c3ccccc3n2n1 (stereo not given)
  nt	96	104	-7
- CCC(C)Nc1oc(-c2ccc(S(=O)(=O)N3CCCC3)cc2)nc1C#N (stereo not given)
  106	nt	nt	-29
- COc1cc([N+](=O)[O-])ccc1NC(=O)Cn1c2ccccc2c(=O)c2cc(C)ccc21
  106	nt	nt	-31
- Cn1c(SCc2nnc(-c3ccc(Cl)cc3)o2)nc2sccc2c1=O
  nt	71	92	-17
- O=C(OCCN1C(=O)c2ccccc2C1=O)c1ccc(-n2cnnn2)cc1
  nt	98	97	-27
- O=C(Nc1cc2ccccc2oc1=O)c1ccccc1
  98	90	90	-25
- COc1ccc2[nH]cc(CCNC(=O)Nc3ccc(F)cc3)c2c1
  101	113	74	-15

Screening results from PubChem.
